Screening results (PubChem BioAssay)
VACV mCherry inh = qHTS for Stage-Specific Inhibitors of Vaccinia Orthopoxvirus: mCherry Reporter Primary qHTS; Vaccinia virus mCherry reporter infection, fluorescence; about a quarter of the inactives have no number; Potency, µM (top dose mostly 36.5 µM), for the others: at the highest dose activity change, negative = inhibition, most hits filed as inhibitors; actives 0.63% (n = 310,000); AID 720579, 2013; active = well fitted inhibition curve with a large enough effect; inconclusive = small, poorly fitted or top-dose-only effect; inactive = no such curve, though single readings can be large or run the other way; tested in A549 cells; also: nearly all actives have a fitted effect of over 35% in size; inactives centre near -10
Vaccinia Venus = qHTS for Stage-Specific Inhibitors of Vaccinia Orthopoxvirus: Venus Reporter Primary qHTS; Vaccinia virus Venus reporter expression, fluorescence; Potency, µM (titrated, usually from 36.5 µM), inactives show at the highest dose activity change, negative = inhibition, usual class: inhibitors; actives 0.46% (n = 330,000); AID 720580, 2013; active means well fitted inhibition curve with a large enough effect; inconclusive means small, poorly fitted or top-dose-only effect; inactive means no such curve, though single readings can be large or run the other way; tested in A549 cells; also: nearly all actives have a fitted effect of over 30% in size; inactives centre near -10
* hit, by the source's call; [ ] = another dose, or the depositor's remark. % is scaled to controls: 0 for no effect and ±100 for the full control effect; potency is read from the fitted curve at half-maximal effect.

How did CCOC(=O)CC(=O)N/N=C/c1c(N)n(C)c(=O)n(C)c1=O do in these assays?
VACV mCherry inh: -0.2%; Vaccinia Venus: -15.4%

Results for O=C(CNS(=O)(=O)c1ccccc1)NCc1ccco1 ?
VACV mCherry inh: 8.4%; Vaccinia Venus: -4.0%

How did O=c1[nH]c2cccnc2c2ccsc12 do in these assays?
VACV mCherry inh: -10.2%; Vaccinia Venus: -6.3%

How did Cc1cc(N2CCCCC2)nc2ccc(NC(=O)/C=C/c3ccccc3Cl)cc12 do in these assays?
VACV mCherry inh: -18.3%; Vaccinia Venus: -22.8%

What do the screens show for `CCOC(=O)c1sc(=S)[nH]c1C`?
VACV mCherry inh: -12.5%; Vaccinia Venus: -10.1%

Results for COC(=O)N/N=C/c1cccc(OCCSc2ccc(Cl)cc2)c1 ?
VACV mCherry inh: -19.7%; Vaccinia Venus: inconclusive

Results for Cc1cccc(N2C(=O)CC(N3CCN(Cc4ccc5c(c4)OCO5)CC3)C2=O)c1 (stereo not drawn) ?
Vaccinia Venus: -1.5%

How did COc1cc(NC(=O)CCc2c(C)nn(-c3ccc4nnc(C)n4n3)c2C)cc(OC)c1OC do in these assays?
VACV mCherry inh: 5.7%; Vaccinia Venus: 3.6%

Results for COC(CNC(=O)c1cc(C(=O)c2c(-c3c(Cl)cccc3Cl)noc2C)c[nH]1)OC ?
Vaccinia Venus: inconclusive

Results for Cc1ccccc1CNC(=O)c1cccc(NC(=O)c2nsc3ccccc23)c1 ?
VACV mCherry inh: -16.3%; Vaccinia Venus: -21.8%

Results for O=C(COc1nsnc1N1CCOCC1)Nc1ccc(Br)cc1 ?
VACV mCherry inh: -9.9%; Vaccinia Venus: -6.4%

Results for CN1CCCN(c2ccc([N+](=O)[O-])nc2)CC1 ?
VACV mCherry inh: inconclusive; Vaccinia Venus: -5.5%

What do the screens show for `COc1cc(OC)cc(C(=O)NNC(=O)c2nn(C)c(=O)c3ccccc23)c1`?
VACV mCherry inh: 0.6%; Vaccinia Venus: -3.9%

How did CC(=O)c1c(C)[nH]c(C(=O)OCc2ccccc2)c1C do in these assays?
VACV mCherry inh: -21.3%; Vaccinia Venus: -21.0%

What do the screens show for `Cc1ccc(SCC(=O)NC(=O)NCc2ccccc2)c(C)c1`?
VACV mCherry inh: -19.6%; Vaccinia Venus: -13.2%

How did O=C(Cc1ccccc1)OCC(=O)c1ccc(F)cc1 do in these assays?
VACV mCherry inh: inactive; Vaccinia Venus: -5.1%

Results for COc1ccc(CSc2nnc(C)n2N)cc1 ?
Vaccinia Venus: -2.4%

Results for Fc1ccc(N/N=C/c2ccc(N3CCOCC3)cc2)c(F)c1 ?
VACV mCherry inh: inactive; Vaccinia Venus: -14.9%

What do the screens show for `CC(NC(=O)CCCc1c[nH]c2ccccc12)c1ccc(F)cc1` (stereo not drawn)?
VACV mCherry inh: -25.6%; Vaccinia Venus: -9.2%

What do the screens show for `Cc1ccc(S(=O)(=O)Nc2ccc(Cl)cc2O)cc1`?
VACV mCherry inh: -8.8%; Vaccinia Venus: inconclusive

What do the screens show for `Cc1ccccc1CNc1ncnc2cc(Cl)ccc12`?
VACV mCherry inh: -10.2%; Vaccinia Venus: -9.8%

Results for COC(=O)C1C(C(C)C)N(c2ccccc2)OC1(C)O (stereo not drawn) ?
VACV mCherry inh: -16.0%; Vaccinia Venus: -9.7%

What do the screens show for `CCS(=O)(=O)N1CCC(C(=O)Nc2cccc(C(C)=O)c2)CC1`?
VACV mCherry inh: -6.1%; Vaccinia Venus: 4.5%

What do the screens show for `C/[N+]([O-])=C\C1C(=O)CCCC1=O`?
VACV mCherry inh: -5.3%; Vaccinia Venus: -4.6%

How did CCCCCn1c(=O)c(C(=O)Nc2cnccn2)c(O)c2ccccc21 do in these assays?
VACV mCherry inh: -7.0%; Vaccinia Venus: 5.3%

How did O=C1NCN(c2ccccc2)C12CCN(CCCOc1ccc(F)cc1)CC2 do in these assays?
VACV mCherry inh: -23.0%[60.7 µM]; Vaccinia Venus: inconclusive

How did CC1=C(C)CC(C(=O)NNC(=O)c2ccccc2O)C(C(=O)O)C1 (stereo not drawn) do in these assays?
Vaccinia Venus: -2.4%

How did COc1ccc(C[C@H]2CN3C(=NC[C@@H]3Cc3ccccc3)N2CCNC(=O)c2ccc(C)c(Br)c2)cc1 do in these assays?
VACV mCherry inh: inconclusive; Vaccinia Venus: 12.6µM*

What do the screens show for `COc1cc2c(cc1OC)CN(C(=O)CCN1C(=O)C3CCCCC3C1=O)CC2` (stereo not drawn)?
VACV mCherry inh: -13.9%; Vaccinia Venus: -10.3%

How did O=C1C(C23CC4CC(CC(C4)C2)C3)C(=O)N(c2ccccc2)N1c1ccccc1 do in these assays?
VACV mCherry inh: -2.3%; Vaccinia Venus: -11.4%

Results for Cc1ncc(NS(=O)(=O)c2ccc(N)cc2)nc1C ?
VACV mCherry inh: -16.4%; Vaccinia Venus: -12.6%

Results for Cc1cccc(NC2(C(F)(F)F)N=C3SCCN3C2=O)n1 (stereo not drawn) ?
VACV mCherry inh: -16.1%; Vaccinia Venus: -5.1%

Results for Cc1ccc(NC(=O)/C(CN(C)C)=N\O)cc1 ?
VACV mCherry inh: inactive; Vaccinia Venus: -7.3%

How did CC(C)Oc1ccc(F)cc1-c1cc(C(=O)NC2CCCCC2)[nH]n1 do in these assays?
VACV mCherry inh: 6.7%; Vaccinia Venus: -1.0%

What do the screens show for `CCCN(CC(=O)Nc1ccccc1C)C(=O)c1cc(=O)[nH]c2ccccc12`?
VACV mCherry inh: -8.0%; Vaccinia Venus: -4.9%

How did CCCNC(=O)C1CC(c2ccccc2[N+](=O)[O-])=NO1 (stereo not drawn) do in these assays?
VACV mCherry inh: inconclusive; Vaccinia Venus: -0.3%

Results for COCCNC(=O)c1ccc(Cn2c(SCC(=O)NC(C)C)nc3ccccc3c2=O)cc1 ?
VACV mCherry inh: -2.4%; Vaccinia Venus: -0.6%

What do the screens show for `CCOc1ccc(NC(=O)c2c(NC(=O)Cc3ccccc3)sc3c2CCCC3)cc1`?
VACV mCherry inh: -7.9%; Vaccinia Venus: -16.6%

Results for O=C(COc1ccc2ccccc2c1)NNC(=O)Cc1ccccc1 ?
VACV mCherry inh: -14.6%; Vaccinia Venus: -2.5%

What do the screens show for `Cc1ccc(-n2nc(C)c(/C=N/n3c(C)n[nH]c3=S)c2Cl)cc1`?
VACV mCherry inh: -10.2%; Vaccinia Venus: -8.0%

What do the screens show for `CCCCCCn1c(N2CCN(c3ccccc3)CC2)nc2c1c(=O)[nH]c(=O)n2C`?
VACV mCherry inh: -4.3%; Vaccinia Venus: 8.5%

Results for CN(C1CCS(=O)(=O)C1)S(=O)(=O)c1ccccc1[N+](=O)[O-] (stereo not drawn) ?
VACV mCherry inh: inactive; Vaccinia Venus: -9.7%

How did CCC(C)NS(=O)(=O)c1ccc(OCC(=O)NCc2ccccn2)cc1 (stereo not drawn) do in these assays?
VACV mCherry inh: -0.6%; Vaccinia Venus: -5.8%

How did Cc1ccc(-c2c(C(=O)N3CCN(c4ccc(F)cc4)CC3)oc(=O)c3ccccc23)cc1 do in these assays?
VACV mCherry inh: -5.7%; Vaccinia Venus: -4.9%

Results for Cc1cccc(N2CCN(C(=O)C3CCN(c4ncnc5c4nc4n5CCCCC4)CC3)CC2)c1C ?
VACV mCherry inh: -26.0%; Vaccinia Venus: inconclusive

Results for Cc1nn(CCO)c(C)c1Oc1ccccc1O ?
Vaccinia Venus: 2.2%

How did Brc1ccc(-c2noc(C3CCCCC3)n2)cc1 do in these assays?
VACV mCherry inh: inactive; Vaccinia Venus: -7.7%

Results for OC1(c2ccc(Cl)cc2)CN(c2ccccc2)C2=[N+]1CCS2 (stereo not drawn) ?
VACV mCherry inh: -16.3%; Vaccinia Venus: -13.4%

Results for CN(C)CCNC(=O)c1ccc(Cn2c(SCc3ccc(F)cc3)nc3cccnc32)cc1 ?
VACV mCherry inh: -10.0%; Vaccinia Venus: -4.4%

Results for Cc1ccc(C2N(c3ccccc3)C(=S)N3CCCN23)cc1 (stereo not drawn) ?
VACV mCherry inh: -8.6%; Vaccinia Venus: -3.8%

How did COc1cc(-c2cc(C(=O)NCc3ccc(S(N)(=O)=O)cc3)c3ccccc3n2)cc(OC)c1OC do in these assays?
VACV mCherry inh: -10.7%; Vaccinia Venus: -25.1%

How did CN1/C(=C\C(=O)c2ccccc2Cl)c2ccccc2CC1(C)C do in these assays?
VACV mCherry inh: -12.6%; Vaccinia Venus: -15.4%

How did Cc1ccc(NC(=O)Cn2cc(S(=O)(=O)c3ccc(C)cc3)c(=O)c3cc4c(cc32)OCO4)cc1 do in these assays?
VACV mCherry inh: -8.9%; Vaccinia Venus: -12.1%

How did COc1ccc(-n2nc(C(=O)NCC(=O)NCc3ccccc3OC)c3ccccc3c2=O)c(OC)c1 do in these assays?
VACV mCherry inh: -0.3%; Vaccinia Venus: -0.7%

Results for CN(C(=O)Cn1cc(S(=O)(=O)Cc2ccccc2Cl)c2ccccc21)c1ccccc1 ?
VACV mCherry inh: -14.6%; Vaccinia Venus: -3.7%

Results for Cc1cc(NC(=O)CSc2nnnn2-c2ccccc2C)no1 ?
VACV mCherry inh: -14.9%; Vaccinia Venus: -20.7%

Results for COC(=O)c1ccc(/C=C/c2nc3ccccc3c(=O)[nH]2)cc1 ?
VACV mCherry inh: -11.4%; Vaccinia Venus: -3.6%

Results for Cc1ccc(C)c(S(=O)(=O)/N=C(/Nc2ccccc2)c2ccccc2)c1 ?
VACV mCherry inh: inconclusive; Vaccinia Venus: -1.3%

Results for Cc1ccc(C)c(C(=O)NC(C)c2ccc(-n3ccnc3)cc2)c1 (stereo not drawn) ?
VACV mCherry inh: inactive; Vaccinia Venus: 1.0%

Results for C[C@H](NC(=O)c1ccc(Cl)cc1)C(=O)NCCc1ccc(S(N)(=O)=O)cc1 ?
VACV mCherry inh: inactive; Vaccinia Venus: -12.9%

How did CCOc1ccc(CCNC(=O)CN2C(=O)COc3ccc(S(=O)(=O)N4CCOCC4)cc32)cc1 do in these assays?
VACV mCherry inh: inactive; Vaccinia Venus: -2.4%

What do the screens show for `CCOc1ccc(NC(=S)NC(C)c2cccs2)cc1` (stereo not drawn)?
VACV mCherry inh: -24.3%; Vaccinia Venus: -15.7%

What do the screens show for `CN(c1ccccc1)S(=O)(=O)c1cccc(C(=O)OCC(=O)NCc2ccco2)c1`?
VACV mCherry inh: -4.0%; Vaccinia Venus: -2.4%

What do the screens show for `CCOC(=O)c1oc2ccc(CNCCO)c(Cl)c2c1C`?
VACV mCherry inh: -3.5%; Vaccinia Venus: -10.6%

How did CC(C)c1c(C(=O)NCC2(N3CCCCC3)CCCC2)cnn1-c1nccc(-c2ccco2)n1 do in these assays?
VACV mCherry inh: -14.6%; Vaccinia Venus: -10.7%

What do the screens show for `COc1ccc(-c2nc3ccccc3o2)cc1NC(=O)COc1ccc(C)c(C)c1`?
VACV mCherry inh: inconclusive; Vaccinia Venus: inconclusive

Results for Cc1cc(C)n(C(=O)c2c([N+](=O)[O-])cnn2C)n1 ?
VACV mCherry inh: inactive; Vaccinia Venus: -5.0%

How did O=C(NCC1COc2ccccc2O1)c1ccc(-n2cncn2)c([N+](=O)[O-])c1 (stereo not drawn) do in these assays?
VACV mCherry inh: inactive; Vaccinia Venus: -13.7%

How did CCOc1ccccc1C(=O)Nc1cc2c(cc1C)n(C)c(=O)c(=O)n2C do in these assays?
VACV mCherry inh: -12.1%; Vaccinia Venus: -5.3%

Results for O=C(Cc1cccc2ccccc12)NCC(=O)N1CCN(CC(=O)Nc2ccc(F)cc2)CC1 ?
VACV mCherry inh: -5.3%; Vaccinia Venus: -20.1%

Results for Cc1ccc(N2C(=O)c3ccccc3C2=O)cc1C ?
VACV mCherry inh: inactive; Vaccinia Venus: -8.1%

What do the screens show for `CCN(c1ccccc1)S(=O)(=O)c1ccc(Oc2ccccc2)c(N)c1`?
VACV mCherry inh: -5.2%; Vaccinia Venus: 1.0%

Results for CCCCCCCCN1C(=O)[C@H](CC(=O)NCc2ccc(OC)c(OC)c2)C[C@@]2(C(=O)OC)CCCCC=C12 ?
VACV mCherry inh: inconclusive; Vaccinia Venus: -11.9%

How did CCN(CC)S(=O)(=O)c1ccc(C2CNC(=O)C2)cc1 (stereo not drawn) do in these assays?
VACV mCherry inh: -12.1%; Vaccinia Venus: -7.9%

What do the screens show for `Cc1cccn2c(=O)c3cc(C(=O)O)n(C)c3nc12`?
VACV mCherry inh: inactive; Vaccinia Venus: -15.8%

What do the screens show for `O=C(COC(=O)c1ccc([N+](=O)[O-])s1)Nc1ncc(C(F)(F)F)cc1Cl`?
VACV mCherry inh: -4.8%; Vaccinia Venus: 9.4%
